Screening data as filed in PubChem.
Env fusion inh: HIV envelope-mediated fusion inhibition; inhibition, % at 12.3 µM; 1.1% of 360,000 active; HeLa-JRFL Env/CEM21 cell fusion, luciferase;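 active = mean replicate inhibition score of at least 50 and every replicate individually at or above 50; inconclusive = only one of the two criteria met; inactive = mean below 50 and not all replicates reaching 50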;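 also: 0% = plate neutral controls and 100% = maraviroc near 300 nM; one replicate is shown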
MT1-MMP act inh: inhibitors of human MT1-MMP activation | P50281 | HT1080 RFP-PRO-GFP cells, GFP/RFP ratio fluorescence, overnight; percent of plate control window, DMSO zero | GFP/RFP ratio change, % at 20 µM | 0.061% of 360,000 active | AID 651647;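 active = GFP/RFP ratio change of at least 30% with cell ATP level not reduced by more than half and red fluorescence within 50% of control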; also: strong numbers were not always called active
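Material – HT1080 RFP-PRO-GFP cells · Control set – DMSO wells and RFP-L50D-GFP cells · Incubation – overnight cell settling, then overnight compound exposure, 37 °C, 5% CO2 · Compound dosing – single-point 20 µM compound, 1% DMSO · Read-out – GFP/RFP fluorescence ratio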
PABP polyA inh: blocks human PABP binding to poly(A) RNA; P11940; fluorescence polarization; inhibition, % at 35 µM; 1% of 290,000 active;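 active = 50% or more with normal probe brightness, or confirmed in later tests; inconclusive = above 50% with abnormal brightness, or retests that disagree; inactive = below 50% or failed in later tests; about a fifth of its hits are not listed in these tables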;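 also: calls also rest on retests at 20 µM and on dose response follow-up; controls were probe without protein and protein plus probe with vehicle; some compounds called inactive have numbers as strong as hits; many hits fall short of the cut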
CSC inhib: blocks cancer stem cells | AID 2717 | cancer stem cell-like cells viability, luminescence | 1.1% of 300,000 active | inhibition, % at 7.5 µM;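 active = mean at 75% or more and at least half the replicates too; inconclusive = mean and replicates disagree; tested in HMLE shEcad cells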;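 also: 0% = median of negative and 100% = median of positive control wells; the first replicate is given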
Yeast UUG start: alters start codon recognition fidelity in yeast | S. cerevisiae UUG-firefly luciferase reporter, luminescence/redox ratio | activity score, % at 18.7 µM | 0.13% of 350,000 active;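 active = replicate mean at a twofold rise or more, about +100% in these data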;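 also: firefly luciferase made from a UUG start codon reports start codon fidelity; reporter light over untreated wells divided by growth signal over untreated wells; some hits fall short of that in this replicate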
eIF4H FP inh: inhibitors of RNA binding by human eIF4H | Q15056 | eIF4H fluorescence polarization binding assay | inhibition, % at 35 µM | 0.94% of 290,000 active;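 active = 50% or more with normal probe brightness, or confirmed in later tests; inconclusive = above 50% with abnormal brightness, or retests that disagree; inactive = below 50% or failed in later tests; about a fifth of its hits are not listed in these tables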;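 also: calls also rest on retests at 20 µM and on dose response follow-up; 0% = protein and probe with vehicle and 100% = probe without protein; strong numbers were not always called active; many hits fall short of the cut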
Rce1 inhib: blocks yeast Ras-converting enzyme; calls only; AID 2563; Q03530; yeast membranes, quenched prenylated peptide cleavage fluorescence; 0.27% of 290,000 active;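 active = fall in fluorescence gain of 50% or more versus controls, with final raw signal at or below 3038400; inconclusive = same 50% fall but final raw signal above 3038400; inactive = fall in fluorescence gain under 50%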;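 also: plate controls were neutral control wells for no effect and wells lacking membranes for full effect; tested at 10 µM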
Target sequence (Q03530 whole entry, looked up): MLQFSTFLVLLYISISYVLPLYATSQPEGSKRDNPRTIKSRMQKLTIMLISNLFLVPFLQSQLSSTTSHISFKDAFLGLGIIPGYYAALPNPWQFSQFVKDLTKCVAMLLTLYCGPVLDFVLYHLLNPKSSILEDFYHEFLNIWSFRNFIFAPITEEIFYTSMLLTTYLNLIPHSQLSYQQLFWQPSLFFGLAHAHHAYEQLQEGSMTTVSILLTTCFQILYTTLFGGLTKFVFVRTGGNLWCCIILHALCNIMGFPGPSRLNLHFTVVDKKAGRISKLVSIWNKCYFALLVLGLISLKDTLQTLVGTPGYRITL
MT1-MMP act inh RFP: recorded beside MT1-MMP act inh, whose call it bears; RFP signal change, %; measured here: RFP expression control read;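 0 = vehicle wells; hits needed this value within 50% of zero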
An asterisk follows results filed as active; i = inactive; ? = inconclusive; / = no result given; + = active, no number; & = joins results of further samples.

SMILES	Env fusion inh	MT1-MMP act inh	MT1-MMP act inh RFP	PABP polyA inh	CSC inhib	Yeast UUG start	eIF4H FP inh	Rce1 inhib
NC(=O)c1nsc(C(=O)N(Cc2ccccc2Cl)C(C(=O)NCC2CCCO2)c2ccc(O)cc2)c1N (centres undefined)	2	0	-1	5	/	-4	6	i
Cc1ccc(C(=O)OCC(=O)c2c[nH]c3ccccc23)cc1S(=O)(=O)N1CCCCC1	-19	-17	-16	-4	9	-6	6	i
COc1cccc(CNC(=O)C2CCN(c3cnccn3)CC2)c1	-49	-5	-1	-2	/	-8	9	i
CC(C)NC(=O)CSc1nnc(-c2ccncc2)n1-c1ccccc1	-9	2	0	4	-19	-11	1	i
CCCNC(=O)c1ccc(COc2cccc3ccccc23)o1	10	6	-7	2	-4	-19	14	i
COc1ccc(Nc2nc3ccc(C)cc3cc2C#N)c(OC)c1	-11	-20	4	11	1	-18	40	i
COc1ccc(-c2noc(CCC(=O)N3CCN(c4cccc(C(F)(F)F)c4)CC3)n2)cc1	/	4	-6	0	2	-10	-7	i
O=C(O)c1ccccc1Nc1cccc(C(F)(F)F)c1	/	3	2	8	/	0&-11	-9	i
CC(C)C[C@H]1CN=C(Nc2ccccc2)N1CCc1cccc(F)c1	/	-4	1	/	26	-11	/	/
CCCCCCCCN1[C@@H](CC(=O)O)c2cc(C(F)(F)F)ccc2S1(=O)=O	-22	1	5	/	14	21	/	i
COc1ccc(C=CC(=O)c2cc(O)ccc2O)cc1	-214	1	-7	/	/	-19	/	/
O=c1oc(-c2ccccc2)nc2sc3c(c12)CCCC3	/	-5	-5	-1	5	-16	-10	i
O=C(Nc1ccccn1)Nc1cccs1	-105	-5	-5	7	-1	-17	4	i
CC1(C(=O)NCc2ccc(C(F)(F)F)cc2)CCN1Cc1c(F)cccc1F (centres undefined)	-5	3	-3	/	/	0	/	/
C=CCNC(=S)NNC(=O)C(CCCC)CC(C)(C)O (centres undefined)	/	6	3	3	8	-11	-6	i
COc1ccc(C(=O)O)cc1S(=O)(=O)NC(C)C	1	-2	-1	-4	3	-12	-6	i
O=C(Nc1cccc(-c2cccc(Cl)c2)c1)C1CCN(C2CCC2)CC1	-10	-1	0	9	10	-19	-3	i
CC1Cc2cc(/C(O)=C3/C(=O)C(=O)N(CCCn4ccnc4)C3c3ccco3)ccc2O1 (centres undefined)	/	-1	6	-1	-4	-63	3	i
CCN(CC)S(=O)(=O)c1cccc2cc(C(=O)O)c(O)cc12	/	5	2	-8	-10	-34	-2	i
COc1cc(CNCc2ccc3c(c2)OCO3)c([N+](=O)[O-])cc1OC	3	-1	2	5	-8	-11	4	i
C/C(=N/NC(=O)c1cccnc1)C1=C(O)CC(C)(C)CC1=O	4	0	3	-12	-7	/	-3	i
Cc1cc(C)c(S(=O)(=O)N2CCC(C(=O)NCc3ccc(Cl)cc3Cl)CC2)c(C)c1	-13	/	/	-5	-6	2	-5	i
O=C(Oc1ccc([N+](=O)[O-])cc1)c1ccc(Cl)c(S(=O)(=O)N2CCCCC2)c1	/	/	/	14	11	/	4	i
O=C(c1c[nH]c2ccccc12)N1CCN(c2ccccc2)CC1	0	-3	1	1	-12	/	-4	i
Cc1ccc(-c2csnn2)cc1	0	1	0	-7	-5	/	1	i
O=C(COc1ccccc1)NC(=S)Nc1ccc2c3c(cccc13)CC2	/	4	4	7	12	/	13	i
CCOC(=O)c1[nH]c(C)c(C(=O)OCC)c1C	2	1	5	-14	-5	-29	-12	i
Nc1ccn(CC(=O)NCCNc2ccc([N+](=O)[O-])cn2)c(=O)n1	-10	2	5	/	-33	-24	/	/
OCCC1CN(Cc2c(F)cccc2Cl)CCN1C1CCCC1 (centres undefined)	-18	4	7	0	34	-9	11	i
N=C1CCCN1CC(=O)c1ccc(Br)cc1	2	4	1	-7	-4	/	1	i
CC(=O)Nc1ccc(NC2=C/C(=N/S(=O)(=O)c3cccs3)c3ccccc3C2=O)cc1	-8	-15	-40	-12	-11	/	6	/
CCOC(=O)c1cnc2c(F)ccc(F)c2c1Sc1ccccc1	11	-3	-3	-2	14	-17	8	i
COc1ccccc1-n1c(-c2ccccc2)c[nH]c1=S	20	0	3	-5	/	/	-1	+
Cc1ccc2cc3cc(C(=O)NCCCN4CCCC4=O)oc3nc2c1	-11	1	-4	3	-4	1	-2	i
COC(=O)c1ccc(C(=O)OC)c(NC(=S)N2CCCCC2C)c1 (centres undefined)	-106	3	4	2	-8	-27	1	i
COc1ccc(-c2nc(CS(=O)CC(=O)NC(C)CCc3ccccc3)c(C)o2)cc1OC (centres undefined)	-5	-2	-4	9	2	-2	-11	i
Cc1ccccc1C(=O)Nc1ccccc1C(=O)N1CCC(C)CC1	16	0	0	-1	/	-12	-8	i
Cc1cc(=O)oc2cc(OS(C)(=O)=O)ccc12	-4	-1	2	8&4	15	/	-6&1	i
O=C(COC(=O)c1cncc(Br)c1)Nc1ccc(S(=O)(=O)N2CCOCC2)cc1	-5	4	7	/	/	2	/	/
CN(c1ccccc1C(=O)Nc1cccc([N+](=O)[O-])c1)S(=O)(=O)c1ccccc1	20	-1	-2	-4	-11	17	-22	i
COc1ccc(-n2c(CSc3nc(C)cc(C)n3)nnc2SCC(=O)Nc2nccs2)cc1	-10	1	0	12	-5	-16	-5	i
COc1ccc(-n2nc3c(c2NC(=O)c2ccccc2)CS(=O)(=O)C3)cc1	-12	4	5	/	/	-10	/	/
Cc1cc(C)c(C(=O)/C=C/c2cccc3ccccc23)c(=O)[nH]1	11	-15	-20	44	45	/	1	i
CCC1Oc2ccccc2N(CC(=O)NCCN2C(C)CCCC2C)C1=O (centres undefined)	/	2	2	8	2	-5	4	i
CCN1CCCC1CNC(=O)C(=O)Nc1ccc(OC)cc1 (centres undefined)	/	-2	-2	1	-3	-16	6	i
COCCNC(=S)N1CCc2cc(OC)c(OC)cc2C1COc1cc(C)cc(C)c1 (centres undefined)	9	-3	-1	-6	-7	/	-9	i
O=C(Nc1ncc2c(n1)CC(c1ccco1)CC2=O)c1ccccc1 (centres undefined)	-27	5	0	17	/	-19	2	i
CN1C(=O)c2ccccc2C(O)c2ccccc21 (centres undefined)	3	-1	4	/	/	-6	/	i
COc1cc(/C=N/NC(=O)c2ccc(N(C)S(=O)(=O)c3ccccc3)cc2)cc(OC)c1OC	13	5	2	-9	-6	/	-15	i
CCCCCSc1nc2c(cnn2-c2ccc(F)cc2)c(=O)[nH]1	-8	-2	-2	-7	0	-6	-10	i
Oc1cccc(/C=N/Nc2ncnc3c2ncn3Cc2ccccc2)c1	7	8	4	7	28	-11	-2	i
Cc1ccc(-c2cc(C(=O)O)n[nH]2)o1	-19	1	6	4	-1	-9	-5	i
O=C(Nc1ccccn1)c1ccc(Br)c(S(=O)(=O)N2CCCC2)c1	-2	4	-10	10	-3	-5	5	i
Cc1ccc(-n2nnc3c(=O)n(CC(=O)c4ccccc4)cnc32)cc1	/	4	5	4	-9	-4	-2	i
CCOC(=O)c1c(NC(=O)C(C)Sc2nnc(C)c(=O)[nH]2)sc2c1CCCC2 (centres undefined)	6	6	5	5	1	-19	-6	i
Cc1cccc(C(=O)c2cccc(C)c2)c1	/	-1	5	5	-11	-21	9	i
CCC(C)c1ccc(NC(=O)CSc2nncn2N)cc1 (centres undefined)	/	3	2	7	3	/	0	i
CC(C)Sc1cc(N2CCOCC2)nc(-c2ccccc2)n1	29	-2	-3	-12	24	/	-7	i
CCC(=O)N1CCN(CCN=CC2=C(O)CC(c3cccs3)CC2=O)CC1 (centres undefined)	/	-3	3	-14	0	-17	1	i
CCCOc1ccccc1C(=O)N1CCNC(=O)C1CC(=O)OC(C)C (centres undefined)	12	-1	2	0	-24	-7	-6	i

Next entries
SMILES	Env fusion inh	MT1-MMP act inh	MT1-MMP act inh RFP	PABP polyA inh	CSC inhib	Yeast UUG start	eIF4H FP inh	Rce1 inhib
O=C1CC(NCc2ccncc2)C(=O)N1c1ccc(Cl)cc1 (centres undefined)	-8	3	1	-4	-1	-30	-4	i
Cc1ccccc1OCc1nnc(SC(C)C(=O)O)n1Cc1ccccc1 (centres undefined)	-7	0	2	2	13	-16	-3	i
CCN(CC)CCSc1nnc2c3cc(C)ccc3n(Cc3ccccc3)c2n1	14	-4	-10	-1	5	-12	-7	i
COc1cc(/C=N/NS(=O)(=O)c2ccc(Br)cc2)ccc1O	/	2	0	5	3	-17	2	i
Cn1c(SCC(=O)NCCNC(=O)CSc2nnc(C(F)(F)F)n2C)nnc1C(F)(F)F	/	2	4	8	-6	-12	2	i
Cc1cc(Cl)ccc1OCC(=O)NCC(=O)N/N=C/c1ccco1	-14	5	5	15	0	/	-7	i
COc1ccc(CCc2nc(C)ccc2O)cc1	30	2&4	5&5	-4&12	-2&-8	-9	2&0	i
COc1ccc(C)cc1N(CC(=O)NC1CCCC1)C(=O)Cn1nnc(-c2ccc(C)o2)n1	-1	1	4	6	/	21	-11	i
Cc1ccc(CNC(=O)C(=O)NCC2OCCCN2S(=O)(=O)c2cccs2)cc1 (centres undefined)	-7	-6	-3	-1	-10	8	-8	i
CCN(CC)S(=O)(=O)c1ccc2c(c1)nc(CCC(=O)O)n2CC	-24	1	1	10	11	/	-9	/
Cc1ccc(C)c(NC(=O)c2cc(-c3cccnc3)nc3ccccc23)c1	25	3	0	20	0	/	0	i
CC(=O)c1ccc(S(=O)(=O)NC2CC2)cc1	5	0	4	-2	-12	-12	-10	i
Cc1ccc(CN2CCSc3ccc(C(=O)NCc4ccccn4)cc32)cc1	-8	-2	-3	1	41	-13	4	i
C[C@]12CCC(=O)C=C1CC[C@@H]1[C@@H]2CC[C@@]2(C)[C@H]1CC[C@@]21CCC(=O)O1	1	7	-2	-14	-1	-7	-6	i
CC(CSC(=O)c1ccccc1)C(=O)N1c2ccccc2CC1C(=O)O (centres undefined)	30	-1	6	/	/	-8	/	/
O=C(COc1ccccc1Cl)NNC(=O)c1ccc2nc[nH]c2c1	-21	1	7	/	/	-17	/	i
COc1ccc(C(=O)O/N=C(\N)Cc2ccc(Cl)c(Cl)c2)cc1OC	-15	-27	-28	-5	-4	/	-8	i
Cc1cc(C)cc(CSCC(=O)NN=C2CCCCCC2)c1	-7	2	3	-2	-7	/	-1	i
Cc1ccccc1C(OCC(O)CN1CCCCC1CCO)c1ccccc1 (centres undefined)	-29	5	-3	-4	29	-1	-1	i
COc1ccc(OC)c(C2C(C#N)=C(N)N(N(C)C)C3=C2C(=O)CCC3)c1 (centres undefined)	-8	2	4	11	-3	/	0	i
CC(=O)Oc1cc2oc(=O)cc(C)c2cc1OC(C)=O	-153	5	3	15	8	-11	2	?
CCOCCCNC(=O)C1CC(=O)N(C2CCCC2)C1 (centres undefined)	/	7	-4	0	-2	-25	-4	i
CC(C)C[C@@H](COc1ccccc1)N1CCN(CC(C)C)CCC1=O	20	0	-6	0	-4	-1	2	i
CCOC(=O)CSc1nnc2n(Cc3ccccc3)c(=O)c3c4c(sc3n12)CCC4	-34	6	-4	11	/	-22	-9	/

Rows are unselected (roughly 3% active in at least one column).
